Vero = Vero cell cytotoxicity, dose response, cytotoxicity control for Vif-APOBEC3G degradation inhibitor project, Vero cells (AID 1117358). Vero viability, CellTiter-Glo ATP luminescence, 72 h; reference of the scale not given here. viability, % at the top dose, mostly 40 µM; hits show CC50 in µM. hit rate 7% among 2,300;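 active means viability down to 80% or less at some dose; inactive means above 80% at all doses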
* = called active by the depositor.

Start of the listing, in advance (5 entries):
[1] Cc1cc(=O)oc2cc(OCC(=O)NCc3cccnc3)ccc12
  Vero = 93%
[2] C/C(=C/C(=O)NCc1ccccc1)C(=O)O
  Vero = 98%
[3] C(=N\n1cnnc1)/c1ccc2ncccc2c1
  Vero = 93%
[4] C/C(=C\C(=O)c1ccc(Br)cc1)N1CCCCC1
  Vero = 101%
[5] Brc1c(CSc2nnc(-c3ccco3)o2)nc2ccccn12
  Vero = 91%

Results (from the top)
[1] Cc1cc(=O)oc2cc(OCC(=O)NCc3cccnc3)ccc12
  Vero = 93%
[2] C/C(=C/C(=O)NCc1ccccc1)C(=O)O
  Vero = 98%
[3] C(=N\n1cnnc1)/c1ccc2ncccc2c1
  Vero = 93%
[4] C/C(=C\C(=O)c1ccc(Br)cc1)N1CCCCC1
  Vero = 101%
[5] Brc1c(CSc2nnc(-c3ccco3)o2)nc2ccccn12
  Vero = 91%
[6] O=C(Nc1ccccc1)C1=C(O)CC(c2ccco2)CC1=Nc1ccccc1 (stereo not given)
  Vero = 102%
[7] O=C(C1CCC(CNS(=O)(=O)c2cccc3cccnc23)CC1)N1CCCC1 (stereo not given)
  Vero = 105%
[8] COCCNC(=O)COc1ccc(Br)cc1Cl
  Vero = 88%
[9] CO/N=C/C(=N\Nc1ccc(OC)cc1)C(=O)c1ccc(OC)cc1
  Vero = 101%
[10] COCCCNC(=O)c1cc(OC)c(OC)c(OC)c1
  Vero = 98%
[11] COc1cc2oc3ccccc3c2cc1N(CC(=O)N(C)C)S(=O)(=O)c1ccccc1
  Vero = 100%
[12] Cc1ccc(S(=O)(=O)N2CCC(C(=O)Nc3nnc(-c4ccco4)s3)CC2)cc1
  Vero = 102%
[13] Cc1cc(C(=O)CSc2nc3ccccc3c(=O)[nH]2)c(C)n1C
  Vero = 82%
[14] Cn1nnc(NC(=O)c2cccc(F)c2)n1
  Vero = 104%
[15] CN(c1ccc(C(=O)N2CCc3ccccc3C2)cc1)S(C)(=O)=O
  Vero = 106%

[16] COc1cccc(CNC(=O)CCNS(=O)(=O)c2cccs2)c1
  Vero = 101%
[17] CCCN1C(=O)S/C(=C\c2ccc(N3CCOCC3)cc2C)C1=O
  Vero = 91%
[18] O=C(CSc1nc2ccccc2c(=O)n1NC(=O)c1ccccc1)c1ccccc1
  Vero = 84%
[19] c1ccc(-n2c(SCc3ccncc3)nnc2-c2ccco2)cc1
  Vero = 94%
[20] Clc1cccc(Cl)c1Cn1nnc(-c2cccs2)n1
  Vero = 96%
[21] O=C1CSC(c2nn(-c3ccccc3)cc2-c2cc3ccccc3oc2=O)N1Cc1ccco1 (stereo not given)
  Vero = >40µM*
[22] COc1ccc(N(C(=O)c2ccccc2OC)C2C=CS(=O)(=O)C2)c(OC)c1 (stereo not given)
  Vero = 97%
[23] O=C(NCCCN1CCOCC1)C1CC(=O)N(CCc2ccccc2)C1 (stereo not given)
  Vero = 97%
[24] CCc1cccc(NC(=O)Cn2ncn3c(cc4ccccc43)c2=O)c1
  Vero = 97%
[25] Cc1ccc([C@@H]2C3COCC=C3C(C#N)=C(N)C2(C#N)C#N)o1 (stereo not given in full)
  Vero = 103%
[26] CC(C)CNC1=CC(=O)CC(c2ccco2)C1 (stereo not given)
  Vero = 94%
[27] CNC(=O)c1ccccc1NC(=O)c1ccc(C)c(S(=O)(=O)N2CCCCC2)c1
  Vero = 88%
[28] O=C(Cn1nnc(-c2ccccc2-n2cnnn2)n1)c1ccccc1
  Vero = 98%
[29] O=C(CNC(=O)/C(=C\c1ccccc1)NC(=O)c1ccc(Br)cc1)OCc1ccccc1
  Vero = >40µM*
[30] CN(C)CCNc1oc(COc2ccc(Cl)cc2)nc1C#N
  Vero = 96%

[31] Cc1[nH]nc2c1C(c1cn[nH]c1-c1ccc(F)cc1)C(C#N)=C(N)O2 (stereo not given)
  Vero = 97%
[32] CCOC(=O)c1cc2cc(F)ccc2nc1C
  Vero = 96%
[33] COc1cccc(CC(NC(C)=O)C(=O)NC2CCN(S(=O)(=O)c3ccc4ccccc4c3)CC2)c1 (stereo not given)
  Vero = 91%
[34] COC(=O)CC1Oc2ccccc2N(Cc2ccccc2)C1=O (stereo not given)
  Vero = 94%
[35] CCOC(=O)c1sc2nc(CC(=O)OC)nc(NCc3ccco3)c2c1C
  Vero = 112%
[36] CC(=O)Nc1cccc(Oc2ncnc3scc(-c4ccccc4)c23)c1
  Vero = 86%
[37] O=C(Cn1cnc2c(nnn2Cc2ccc(Cl)cc2)c1=O)NCc1ccco1
  Vero = 95%
[38] Cc1sc(NC(=O)CN2CCOCC2)nc1-c1ccc2c(c1)CCN2S(=O)(=O)c1ccccc1
  Vero = 90%
[39] COC(=O)C1=COC(C)C2CN3CCc4c([nH]c5ccccc45)C3CC12 (stereo not given)
  Vero = 96%
[40] CCn1cc(S(=O)(=O)CC(=O)Nc2ccc(OC)cc2)c2ccccc21
  Vero = 101%
[41] COC(=O)Cc1c(C)nc2nc(-c3cccnc3)[nH]n2c1=O
  Vero = 92%
[42] CC(=O)c1cccc(NC(=O)c2cnn3ccccc23)c1
  Vero = 91%
[43] CS(=O)(=O)NCc1nnc(SCc2ccccc2C(F)(F)F)o1
  Vero = 103%
[44] Cn1c(-c2ccccc2)cnc1SCC(N)=O
  Vero = 97%
[45] COC(=O)C1(C(=O)OC)NOC2C(=O)N(c3ccccc3)C(=O)C21 (stereo not given)
  Vero = 93%

[46] O=C(Nc1ccccc1C(=O)NCC1CCCO1)c1ccccc1 (stereo not given)
  Vero = 106%
[47] CCc1ccc(C2C(C(C)=O)=C(C(=O)OC)Nc3nnnn32)cc1 (stereo not given)
  Vero = 102%
[48] CC1(C)OC(=O)C(=CNC(Cc2c[nH]c3ccccc23)C(=O)O)C(=O)O1 (stereo not given)
  Vero = 99%
[49] CCn1c(COc2ccc3c(c2)OCO3)nnc1SCC(=O)c1ccc(Cl)cc1
  Vero = 90%
[50] O=C(CCCNS(=O)(=O)c1cccc2nsnc12)NCc1ccccc1
  Vero = 92%
[51] COc1cc(C2C(C(=O)c3ccco3)=C(O)C(=O)N2c2cc(C)on2)cc(Br)c1O (stereo not given)
  Vero = 97%
[52] COc1ccc(C2CC(C(F)(F)F)n3nc(C(=O)NCc4c(C)nn(C)c4C)c(Cl)c3N2)cc1 (stereo not given)
  Vero = 99%
[53] COc1cc(C(=O)Nc2ccc(S(=O)(=O)NC(C)C)cc2)cc(OC)c1OC
  Vero = 91%
[54] Cc1ccc(N=Nc2ccc(O)c(/C=N\NC(=O)c3ccc(N)cc3)c2)cc1C
  Vero = 103%
[55] COc1ccc(C(C)(C)C)cc1NC(=O)C1C2C=CC(C2)C1C(=O)O (stereo not given)
  Vero = 96%
[56] O=C(NCc1ccc(F)cc1)C1CCCN1C(=O)NCc1ccccc1 (stereo not given)
  Vero = 99%
[57] O=C(CN(C(=O)CCNC(=O)c1ccco1)c1ccccc1)NC1CCCC1
  Vero = 103%
[58] COc1ccc(NC(=O)CSc2nc(C)cc(C)n2)cc1
  Vero = 89%
[59] COc1cc(CCC(=O)Nc2cccc(C(F)(F)F)c2)cc(OC)c1OC
  Vero = 101%
[60] Cc1nc2ccccc2c2oc(C(=O)N3CCN(C(=O)c4ccco4)CC3)cc12
  Vero = 99%

[61] O=C(OC1CCCCC1)c1ccc2c(c1)C1C=CCC1C(C(=O)O)N2 (stereo not given)
  Vero = 89%
[62] Cc1cccc(-n2nc3c(c2NC(=O)c2ccc(Br)o2)CSC3)c1
  Vero = 98%
[63] O=C(O)CN1C(=O)COc2cc(S(=O)(=O)N3CCCC3)ccc21
  Vero = 101%
[64] COc1ccc(CCN2C(=O)CC(Nc3ccc(N4CCOCC4)cc3)C2=O)cc1OC (stereo not given)
  Vero = 99%
[65] O=C1CC(=O)N(Cc2ccco2)C(=O)N1
  Vero = 100%
[66] Cc1nn(Cc2ccccc2)c(C)c1NC(=O)c1cc(-c2ccc3c(c2)OCO3)on1
  Vero = 100%
[67] NC(=O)C1CCN(C(=O)C23CC4CC(CC(C4)C2)C3)CC1
  Vero = 97%
[68] COc1ccc(NC(=O)CSc2nnc(C)n2Cc2ccccc2)cc1
  Vero = 92%
[69] Cn1c(=O)oc2cc(S(=O)(=O)Nc3cccc(C(=O)O)c3)ccc21
  Vero = 94%
[70] CCCCNC(=O)c1onc(CSc2cccc(OCC)c2)c1C(=O)O
  Vero = 98%
[71] Cn1cnnc1SCC(=O)Nc1ccccc1C(=O)NC1CC1
  Vero = 94%
[72] COc1ccccc1C1CC(=O)Nc2c1c(=O)n(C)c(=O)n2C (stereo not given)
  Vero = 92%
[73] CCOc1ccccc1N1C(=O)CC(Nc2ccc(N3CCOCC3)cc2)C1=O (stereo not given)
  Vero = 91%
[74] Cc1cc(C)c(Cc2c(C)nc3c(C(=O)NCc4ccco4)cnn3c2C)c(C)c1
  Vero = >40µM*
[75] O=C(Nc1ccccc1)NC1CCN(CCCN2C(=O)c3ccccc3C2=O)CC1
  Vero = 104%

[76] Cc1ccc(-c2nnn(CC(=O)N(c3ccc(F)cc3)C(C(=O)NC3CCCC3)c3ccco3)n2)o1 (stereo not given)
  Vero = 94%
[77] COC(=O)c1ccc(CC(=O)c2c(C)cc(O)cc2O)o1
  Vero = 92%
[78] O=C(O)CN1C(=O)CSc2ccccc21
  Vero = 101%
[79] Cc1ccc2nc(C3CCN(CC(=O)Nc4ccc5c(c4)OCCO5)CC3)[nH]c2c1
  Vero = 103%
[80] Cc1cc(C)cc(NC(=O)CSc2nc3c(c(=O)n2C)SC(C)C3)c1 (stereo not given)
  Vero = 95%
[81] Cc1ccc(Cn2c(=S)[nH]c3ccc(N4CCOCC4)cc3c2=O)o1
  Vero = 93%
[82] CCC(=O)Nc1cc2c(cc1C(=O)CC)OCCO2
  Vero = 92%
[83] CCC(Nc1nc(-c2ccccc2)nc2ccccc12)C(=O)O (stereo not given)
  Vero = 93%
[84] COc1ccc(C(=O)Nc2cccnc2)cc1S(=O)(=O)N1CCOCC1
  Vero = 92%
[85] CN(C(=O)CSc1nnc(N)s1)c1c(N)n(Cc2ccccc2)c(=O)[nH]c1=O
  Vero = 96%
[86] COc1ccc(OC)c(-n2cnnn2)c1
  Vero = 101%
[87] COC(=O)c1c(NC(=O)CSc2nnc(CNc3ccc(Cl)cc3)o2)sc(C)c1C
  Vero = 87%
[88] N#CC1(c2ccc(NC(=O)c3ccccc3F)cc2)CCCC1
  Vero = 98%
[89] COc1ccccc1N1CCN(C(=O)c2cc(-c3cccs3)on2)CC1
  Vero = 107%
[90] O=C(O)CCC(=O)N(Cc1cccs1)Cc1cccs1
  Vero = 120%

Part of the list above, set out differently:
no. | SMILES | Vero
80 | Cc1cc(C)cc(NC(=O)CSc2nc3c(c(=O)n2C)SC(C)C3)c1 (stereo not given) | 95%
81 | Cc1ccc(Cn2c(=S)[nH]c3ccc(N4CCOCC4)cc3c2=O)o1 | 93%
82 | CCC(=O)Nc1cc2c(cc1C(=O)CC)OCCO2 | 92%
83 | CCC(Nc1nc(-c2ccccc2)nc2ccccc12)C(=O)O (stereo not given) | 93%
84 | COc1ccc(C(=O)Nc2cccnc2)cc1S(=O)(=O)N1CCOCC1 | 92%
85 | CN(C(=O)CSc1nnc(N)s1)c1c(N)n(Cc2ccccc2)c(=O)[nH]c1=O | 96%
86 | COc1ccc(OC)c(-n2cnnn2)c1 | 101%

Remaining list, next part
[91] CCOC(=O)C1CCN(C(=O)C2CCN(S(=O)(=O)c3cc(Cl)ccc3Cl)CC2)CC1
  Vero = 109%
[92] CC(=O)n1c(Cl)c(NC(=O)CCl)c2ccccc21
  Vero = 95%
[93] O=C1C2C3C=CC(C3)C2C(=O)N1CNc1ccc(O)cc1 (stereo not given)
  Vero = 100%
[94] Cc1cc(C)nc(N(C#N)CN2C(=O)c3ccccc3S2(=O)=O)n1
  Vero = 105%
[95] Cc1ccc(-n2nnc3c(=O)n(CC(=O)c4ccccc4)cnc32)cc1
  Vero = 105%
[96] O=C(CSc1nc2cc(Cl)ccc2s1)N1CCN(C(=O)c2ccco2)CC1
  Vero = >40µM*
[97] O=C(CSc1nc2cc([N+](=O)[O-])ccc2n1-c1ccccc1)NCc1ccc2c(c1)OCO2
  Vero = 94%
[98] Cc1cc(C(=O)OC2CCOC2=O)c2ccccc2n1 (stereo not given)
  Vero = 95%
[99] O=C(c1ccccc1Br)N1CCN(c2ccccc2)CC1
  Vero = 104%
[100] CC(C)c1nc2sc3c(NCc4ccco4)ncnc3c2c2c1COC(C)(C)C2
  Vero = >40µM*
[101] CC(=O)Nc1ccc(S(=O)(=O)N2CCN(Cc3ccccn3)CC2)cc1
  Vero = 97%
[102] Brc1ccccc1Cn1c(-c2cncs2)nc2ccccc21
  Vero = 81%
[103] CCOC(=O)C1=C(N)n2c(s/c(=C\c3ccco3)c2=O)=C(C(=O)OC(C)C)C1c1ccco1 (stereo not given)
  Vero = 100%
[104] Cc1cc(NC(=O)c2cncc(Br)c2)no1
  Vero = 95%
[105] Cc1[nH]c(=O)[nH]c(=O)c1S(=O)(=O)N1CCCC(C(=O)NCCc2ccccc2)C1 (stereo not given)
  Vero = 87%

Entries 99 to 105 from above:
[99] O=C(c1ccccc1Br)N1CCN(c2ccccc2)CC1
  Vero = 104%
[100] CC(C)c1nc2sc3c(NCc4ccco4)ncnc3c2c2c1COC(C)(C)C2
  Vero = >40µM*
[101] CC(=O)Nc1ccc(S(=O)(=O)N2CCN(Cc3ccccn3)CC2)cc1
  Vero = 97%
[102] Brc1ccccc1Cn1c(-c2cncs2)nc2ccccc21
  Vero = 81%
[103] CCOC(=O)C1=C(N)n2c(s/c(=C\c3ccco3)c2=O)=C(C(=O)OC(C)C)C1c1ccco1 (stereo not given)
  Vero = 100%
[104] Cc1cc(NC(=O)c2cncc(Br)c2)no1
  Vero = 95%
[105] Cc1[nH]c(=O)[nH]c(=O)c1S(=O)(=O)N1CCCC(C(=O)NCCc2ccccc2)C1 (stereo not given)
  Vero = 87%

An excerpt; rates above refer to the full screens.
